High-throughput results deposited in PubChem BioAssay by several laboratories.
HNF4A DNA FP – change in binding of human HNF4A to DNA, primary screen, biochemical, fluorescence polarization, FITC-DNA; Hepatocyte nuclear factor 4-alpha (Homo sapiens), P41235; AID 1224865, 2016; activity change, % at 10 µM; 1 h; 360,000 tested, 0.3% active; in the data active = activity change above about 30%, passing the limit was not always enough;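 also: controls were the assay level and a saturating level of protein; the project sought stronger binding though the title names inhibitors; some compounds called inactive have numbers as strong as hits; positive values seem to mean higher polarization but the record does not say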
Target sequence (P41235 whole entry, looked up): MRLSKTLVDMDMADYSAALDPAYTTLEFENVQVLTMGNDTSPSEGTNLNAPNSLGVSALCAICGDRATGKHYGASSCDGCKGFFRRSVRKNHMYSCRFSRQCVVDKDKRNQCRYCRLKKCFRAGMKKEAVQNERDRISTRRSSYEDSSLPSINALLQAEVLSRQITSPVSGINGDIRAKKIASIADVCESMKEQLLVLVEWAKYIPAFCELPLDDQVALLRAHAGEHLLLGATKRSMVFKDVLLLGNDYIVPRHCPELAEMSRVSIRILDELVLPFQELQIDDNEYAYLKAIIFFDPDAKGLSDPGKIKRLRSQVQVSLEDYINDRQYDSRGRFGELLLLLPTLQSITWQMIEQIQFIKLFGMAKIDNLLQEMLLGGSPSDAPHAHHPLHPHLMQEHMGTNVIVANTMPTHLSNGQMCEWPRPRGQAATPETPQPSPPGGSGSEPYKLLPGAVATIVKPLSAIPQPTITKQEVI
FGF22 binding – binders of human FGF22 protein, primary screen, FGF22 synaptogenesis inhibitor project, biophysical, thermal shift, single point | calls only at 9.99 µM | AID 651658, 2012 | 340,000 tested, 1.5% active | recombinant FGF22 thermal shift, SYPRO orange fluorescence; percent of sucrose octasulfate shift, DMSO zero;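 active = melting point raised past a set limit in the mean and every replicate; three in four hits are not shown here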
Target sequence (Q9HCT0 whole entry, looked up): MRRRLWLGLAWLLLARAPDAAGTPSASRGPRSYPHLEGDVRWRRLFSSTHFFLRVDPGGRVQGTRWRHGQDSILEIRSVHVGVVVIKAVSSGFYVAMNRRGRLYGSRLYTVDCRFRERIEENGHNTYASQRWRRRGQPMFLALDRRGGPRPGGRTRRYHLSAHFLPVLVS
* hit, by the source's call; i = inactive. Some of the compounds tested. The share of hits here may be higher or lower than overall.

Each structure is followed by: FGF22 binding	HNF4A DNA FP
CCC(=O)Nc1ccc(S(=O)(=O)NC[C@H]2O[C@@H](n3cc(C)c(=O)[nH]c3=O)C[C@@H]2O)cc1
 : i	2.8
Nc1ccn([C@@H]2O[C@H](CNCc3ccc(-c4cc(C(F)(F)F)ccc4Cl)o3)[C@@H](O)[C@H]2O)c(=O)n1
 : i	-1.8
O=C(Nc1cccc(OC(F)(F)F)c1)C1Cc2c(-c3ccco3)ccnc2O1 (stereo unspecified)
 : i	1.1
O=C(NCc1ccc(Cl)c(Cl)c1)c1cc(C2CCCCN2C(=O)C2CCCCC2)on1 (stereo unspecified)
 : i	2.0
CCc1nc2c(OCCOc3ccc(F)cc3)cccn2c1N(C)C(=O)c1cccs1
 : i	-3.2
COc1ccc2[nH]cc(CCNC(=O)/C=C/[C@H]3O[C@@H](n4cnc5c(NC(=O)c6ccccc6)ncnc54)[C@H](O)[C@@H]3O)c2c1
 : i	-0.8
CCCCCCC=C1CCC(CN2CCCC2)C1=O (stereo unspecified)
 : i	-1.9
CCCCNC(=O)c1nc(-c2cc3ccccc3[nH]2)oc1-c1ccccc1
 : i	5.7
Cc1ccc(C(O)c2ncc(-c3ccccc3Cl)[nH]2)cc1F (stereo unspecified)
 : i	-0.1
CN1CCCC1(C)C(=O)NCc1ccc(F)cc1Cl (stereo unspecified)
 : i	1.8
Cc1cc2nc(-c3cccc(Br)c3)c(Cc3ccsc3)n2c(C)c1Br
 : i	6.0
CC(C)(C)NC(=O)C1c2ccccc2OCC(=O)N1CC(F)(F)F (stereo unspecified)
 : i	1.5
CC1C(=O)N(Cc2cn(CCC3OCCCO3)nn2)CCS(=O)(=O)N1Cc1ccc(-c2cccc(CO)c2)cc1 (stereo unspecified)
 : i	-8.1
Cc1ccccc1-c1ccc(CN2C(C(C)C)C(=O)N(Cc3cn(CCC4OCCO4)nn3)CCS2(=O)=O)cc1 (stereo unspecified)
 : i	-0.2
O=C1NC[C@@H](CCCCN2CCN(CCc3ccccc3)C(=O)C2=O)N(Cc2ccccc2)C1=O
 : i	11.2
CC1(C(=O)NS(=O)(=O)C2CC2)CCCN(C(=O)c2ccc3c(c2)OCO3)C1 (stereo unspecified)
 : i	-1.0
COc1cccc(NC(=O)Nc2nnc([C@@H]3C[C@H](O)[C@@H](CO)O3)s2)c1
 : i	3.3
O=C(NN=Cc1ccccc1Cl)c1ccccc1
 : i	-0.3
Cc1ccc(F)cc1C(=O)N1CCCCC1c1cc(C(=O)NC(C)C)no1 (stereo unspecified)
 : i	-2.9
Cc1ccc(F)cc1-c1nc(NCC2CC2)nc2ccsc12
 : i	-1.2

Next part.
Each structure is followed by: FGF22 binding	HNF4A DNA FP
CCOC(=O)CCCCCC(=O)Nc1ccc2c(c1)C(=O)N([C@H](C)CO)C[C@H](C)[C@@H](CN(C)C(=O)Nc1ccccc1)OCCCC[C@@H](C)O2
 : i	-4.3
COCCN1C(=O)c2ccccc2C1c1nnnn1-c1ccc2c(c1)OCCO2 (stereo unspecified)
 : i	3.9
OC[C@@H]1CN(Cc2ccc(Cl)cc2)C[C@H](n2cnc3c(NC4CCC4)ncnc32)O1
 : i	0.7
CCCCCCN1C[C@H](O)[C@@H](n2cc(C3CC3)nn2)C[C@@H]1c1ccc(OC)cc1
 : i	0.6
Cc1ccc(S(=O)(=O)N2C3CC(c4ccccc4)N(S(=O)(=O)c4cccc(Cl)c4)CC3C(=O)C[C@H]2c2ccccc2)cc1 (stereo partly specified)
 : i	-7.3
COc1ccc(CN2C(=O)C(CC(=O)NCc3cccc4ccccc34)CC(C(=O)N3CCOCC3)=C2C)cc1 (stereo unspecified)
 : i	-8.6
CCOC(=O)C1(C)CCCN(C(=O)c2ccc(N(C)C)cc2)C1 (stereo unspecified)
 : i	-1.0
CC(C)CN1CCN(C(=O)COC(=O)c2ccc(S(C)(=O)=O)c([N+](=O)[O-])c2)CC1
 : i	1.7
O=C(NCc1cccs1)c1ccc2sc(C3=C[C@@H](O)[C@@H](O)[C@@H](CO)O3)nc2c1
 : i	1.6
Cc1cc(C)cc(Cn2cc(CN3CC(N4CCSCC4)CS3(=O)=O)nn2)c1 (stereo unspecified)
 : i	1.1
CCN(C(=S)Nc1cccc2ccccc12)c1ccccc1
 : i	-1.6
Cc1nc2c(OCc3ccc(F)c(F)c3)cccn2c1N(C)C(=O)CCC1CCCC1
 : i	-1.3
COc1cccc(NC(=O)C2(C)CCN2Cc2ccc(SC)cc2)c1 (stereo unspecified)
 : i	-4.5
CCOC(=O)C1(C)CCN1C(=O)c1ccc(N(C)C)cc1 (stereo unspecified)
 : i	-2.3
NC(c1csc(NC(=O)Nc2cccc(Cl)c2)n1)c1ccccc1Cl (stereo unspecified)
 : i	-1.4
N#Cc1ccc(NN=Nc2ccccc2C#N)cc1
 : i	0.7
CN(Cc1ccc(Cl)cc1)C(C(=O)NC1CCCCC1)c1cc2ccccc2o1 (stereo unspecified)
 : i	3.4
CCOc1ccccc1N1CCN(CC(=O)Nc2nccs2)CC1
 : i	4.8
O=C(CN1CCN(C(=O)CNC(=O)c2ccc(N3CCCC3=O)cc2)CC1)Nc1cccc(F)c1
 : i	0.7
COc1ccc(NC(=O)c2cccc3c(-c4ccc(O)c(OC)c4)coc23)cc1
 : i	-5.2

More records follow.
Each structure is followed by: FGF22 binding	HNF4A DNA FP
COCCc1ccc(OC2(C)CCN(Cc3cccc(OC)c3OC)C2)cc1 (stereo unspecified)
 : i	2.0
CCc1nc2ccc(C(=O)NCc3ccc4c(c3)OCO4)cn2c1N(CCC(C)C)CCN(C)C
 : i	-2.8
CCNC(=S)Nc1ccc2c(c1)c(=O)n(C)n2CC=C(C)C
 : i	-6.6
COc1ccc(CCNC(=O)C(F)(F)F)cc1S(N)(=O)=O
 : i	0.6
COC(=O)c1ccc2cc(C)cc(C)c2n1
 : i	1.7
Cc1noc(C)c1NC(=O)N(C)C[C@@H]1Oc2cc(Br)ccc2S(=O)(=O)N([C@@H](C)CO)C[C@H]1C
 : i	-0.8
CCOc1ccc(-c2cncc3nccn23)cc1
 : i	1.2
O=C(Nc1ccc(F)cc1)C(CCc1ccccc1)N1CCN(c2cccc(C(F)(F)F)n2)CC1 (stereo unspecified)
 : i	0.8
CCCS(=O)(=O)NC(=O)C1(C)CCN(C(=O)c2c(F)ccc(C)c2F)C1 (stereo unspecified)
 : i	1.1
CC(=O)NCCNC(=O)Cn1nnc(-c2ccccc2)c1COc1ccc2ccccc2c1
 : i	3.2
O=C(NN=Cc1ccc(Cl)cc1Cl)c1ccccc1
 : i	-1.6
COCCNc1nc(NCc2cccs2)nc2ccsc12
 : i	2.2
CN1OC[C@@H]2CN(S(=O)(=O)c3cccc(C(F)(F)F)c3)[C@H](c3ccc(N4CCCCC4)cc3)C[C@@H]21
 : i	3.1
OC(c1ccc(F)cc1)c1ncc(-c2ccc(Oc3ccccc3)cc2)[nH]1 (stereo unspecified)
 : i	1.6
CC(=O)Nc1cc(-c2cccc(N)c2)cn2c(-c3ccc(C(C)=O)cc3)cnc12
 : i	-1.2
COC(=O)C1=C(C)NC(=O)NC1c1ccc(OC)c(OC)c1 (stereo unspecified)
 : i	0.6
CCOC1CCCc2oc(-c3ccc(OC)cc3)c(C#CCCO)c21 (stereo unspecified)
 : i	-2.9
C[C@H](NC(=O)c1ncn2c1c(=O)[nH]c1ccc(Br)cc12)c1ccccc1
 : i	38.9
COc1ccccc1N1CCN(S(=O)(=O)CCNC(=O)CC2CCCC2)CC1
 : i	-4.5
O=C(C[C@H]1C(=O)N(Cc2cccnc2)C[C@@H]1Cc1ccccc1)Nc1ccccc1
 : i	-1.8

Part of the list above in order of heavy-atom count, highest first:
Each structure is followed by: FGF22 binding	HNF4A DNA FP
CCc1nc2ccc(C(=O)NCc3ccc4c(c3)OCO4)cn2c1N(CCC(C)C)CCN(C)C
 : i	-2.8
COCCc1ccc(OC2(C)CCN(Cc3cccc(OC)c3OC)C2)cc1 (stereo unspecified)
 : i	2.0
C[C@H](NC(=O)c1ncn2c1c(=O)[nH]c1ccc(Br)cc12)c1ccccc1
 : i	38.9
CCOC1CCCc2oc(-c3ccc(OC)cc3)c(C#CCCO)c21 (stereo unspecified)
 : i	-2.9
CCNC(=S)Nc1ccc2c(c1)c(=O)n(C)n2CC=C(C)C
 : i	-6.6
CCOc1ccc(-c2cncc3nccn23)cc1
 : i	1.2

Carrying on:
Each structure is followed by: FGF22 binding	HNF4A DNA FP
Cc1cccc(S(=O)(=O)N(C)C[C@@H]2OCc3cn(nn3)CCCC(=O)N([C@H](C)CO)C[C@H]2C)c1
 : i	0.6
COc1ccc(/C=C/C(=O)OCC(=O)c2cc(C)ccc2C)cc1
 : i	-4.0
O=c1ccn([C@@H]2O[C@H](CNCc3cccc4c3sc3ccccc34)[C@@H](O)[C@H]2O)c(=O)[nH]1
 : i	0.7
CN(C)C(=O)c1cccc(-c2cc(NC=O)c3ncc(-c4ccc(F)c(Cl)c4)n3c2)c1
 : i	3.6
O=C1C(=Cc2cccc(Cl)c2)Cc2ccccc21
 : i	-2.7
O=C(Nc1ccc2c(c1)OCCO2)C(c1ccnc2ccccc12)n1c(=O)c(-c2ccco2)nc2ccccc21 (stereo unspecified)
 : i	11.8
O=C(NCc1ccccc1)C1c2ccccc2OCC(=O)N1CCCN1CCOCC1 (stereo unspecified)
 : i	-3.0
Cc1nc(Cc2nnc(SC(C)C(=O)Nc3ccccc3)o2)cs1 (stereo unspecified)
 : i	3.9
O=C(NCc1cccnc1)c1csc([C@@H]2O[C@H](CO)[C@H](O)[C@H](O)[C@H]2O)n1
 : i	1.5
COc1cccc(S(=O)(=O)N(C)C[C@@H]2OCc3cn(nn3)CCCC(=O)N([C@@H](C)CO)C[C@H]2C)c1
 : i	-0.4
CCCCOc1ccc(S(=O)(=O)NC(=O)C2(C)CCN2C(=O)Cc2cccs2)cc1 (stereo unspecified)
 : i	0.8
O=C(Nc1ccc(N2CCOCC2)cc1)c1csc([C@@H]2O[C@H](CO)[C@H](O)[C@H](O)[C@H]2O)n1
 : i	-0.5
CCc1nc2c(OCC(=O)C(C)(C)C)cccn2c1N(C)C(=O)COc1ccccc1
 : i	0.4
NC(Cc1ccc(C(F)(F)F)cc1)c1csc(Nc2cnccn2)n1 (stereo unspecified)
 : i	1.8
NC(CCc1ccccc1)c1csc(Nc2nncc3ccccc23)n1 (stereo unspecified)
 : i	0.3
CCCc1nc2ccc(C)cn2c1Cc1ccsc1
 : i	5.4
Cc1cccc(C)c1NC(=O)C1(C)CN(S(C)(=O)=O)CC(=O)N1CCOc1ccccc1 (stereo unspecified)
 : i	-5.0
O=C(NCc1ccccc1)C(c1ccccc1)n1c(-c2ccncc2)nc2ccccc21 (stereo unspecified)
 : i	-0.7
CN(C)c1ncnc2c1ncn2[C@H]1CN(CCN2CCOCC2)C[C@@H](CO)O1
 : i	-1.0
Cc1cscc(C)c1=S
 : i	3.1

The list goes on.
Each structure is followed by: FGF22 binding	HNF4A DNA FP
O=C(/C=C/[C@H]1O[C@@H](n2cnc3c(NC(=O)c4ccccc4)ncnc32)[C@H](O)[C@@H]1O)NCc1ccco1
 : i	-3.2
CCOC(=O)[C@]12CCC=C1N(CCC1=CCCCC1)C(=O)[C@H](CC(=O)NCC1CCCCC1)C2
 : i	-2.5
COc1ccc(Cl)cc1-c1cc(C(=O)NCc2ccc(F)cc2)[nH]n1
 : i	1.2
CCCCC[C@@H](C)N1C[C@H](COCc2ccccc2)Oc2cc(N3CCC[C@H]3C(N)=O)ccc2S1(=O)=O
 : i	2.2
CN(C)C(=O)c1cccc(-c2cnc3c(NC=O)cc(-c4ccc(F)cc4)cn23)c1
 : i	3.2
O=C(NCc1ccccc1)C(c1ccc(C(F)(F)F)cc1)n1c(=O)c(-c2ccco2)nc2ccccc21 (stereo unspecified)
 : i	10.8
CCN(CC)C(=O)C1=C(C)N(CCCN2CCCC2=O)C(=O)C(CC(=O)NCCc2ccccn2)C1 (stereo unspecified)
 : i	-6.6
CCNC(=O)C1(C)CCN(C(=O)c2ccc(OC(F)F)cc2)C1 (stereo unspecified)
 : i	-0.9
CN(C(=O)c1cc(-c2cccs2)nn1-c1ccccc1)C1CCS(=O)(=O)C1 (stereo unspecified)
 : i	-2.8
Cc1ccsc1C(=O)N1CCC1(C)C(=O)NS(=O)(=O)c1ccccc1C(F)(F)F (stereo unspecified)
 : i	-5.7
CC1(C(=O)Nc2ccc3nc[nH]c3c2)CCN1C(=O)c1ccccc1CCc1ccccc1 (stereo unspecified)
 : i	-2.9
Nc1ccn(C(C=O)CC(C=O)CO)c(=O)n1 (stereo unspecified)
 : i	3.7
CCOC(=O)[C@]12CCCC=C1N(Cc1ccc3c(c1)OCO3)C(=O)[C@H](CC(=O)N1CCOCC1)C2
 : i	5.1
CCN(c1cccc(C)c1)S(=O)(=O)c1cc2[nH]c(=O)c(=O)[nH]c2cc1C
 : i	2.9
COCCCN1C(=O)C(CC(=O)NC2CCCC2)CC(C(=O)N2CCOCC2)=C1C (stereo unspecified)
 : i	-0.7
COc1ccc(NC(=O)C2(C)Cc3c(-c4ccc(NC(C)=O)cc4)ccnc3O2)cc1 (stereo unspecified)
 : i	-0.2

Reprinted at random: two records from the list
Each structure is followed by: FGF22 binding	HNF4A DNA FP
CCOC(=O)[C@]12CCCC=C1N(Cc1ccc3c(c1)OCO3)C(=O)[C@H](CC(=O)N1CCOCC1)C2
 : i	5.1
CN(C(=O)c1cc(-c2cccs2)nn1-c1ccccc1)C1CCS(=O)(=O)C1 (stereo unspecified)
 : i	-2.8
